Cruzain inh Det: qHTS Assay for Promiscuous and Specific Inhibitors of Cruzain (with detergent); purified cruzain, Z-FR-AMC fluorescence, 0.01% Triton; 0.43% of 200,000 active; Potency, µM, for the others: max response, negative = inhibition, hits mostly inhibitors; AID 1478, 2009; active = well fitted curve in the direction sought with a large enough effect; inconclusive = small, poorly fitted or top-dose-only effect, or another doubt; inactive = no such curve, though single readings can be large; an effect the other way counts as inactive or inconclusive;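 also: plate controls were neutral wells for no effect and buffer without enzyme for full effect; nearly all actives have a fitted effect of over 40% in size; top concentration of the series not given in the record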
Target sequence (P25779 123-467 limits assumed): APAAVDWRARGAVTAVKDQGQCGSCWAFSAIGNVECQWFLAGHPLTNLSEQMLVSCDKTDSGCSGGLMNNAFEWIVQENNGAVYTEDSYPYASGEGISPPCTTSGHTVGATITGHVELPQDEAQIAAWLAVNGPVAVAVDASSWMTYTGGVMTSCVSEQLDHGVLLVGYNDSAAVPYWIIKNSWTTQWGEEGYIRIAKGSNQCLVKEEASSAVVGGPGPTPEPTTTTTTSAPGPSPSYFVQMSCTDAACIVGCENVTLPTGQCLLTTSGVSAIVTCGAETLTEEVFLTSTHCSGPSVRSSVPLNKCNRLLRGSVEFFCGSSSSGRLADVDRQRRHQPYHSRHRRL
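Cruzain (1.5 nM) preincubated 15 min at RT with compound in 100 mM sodium acetate pH 5.5, 5 mM DTT, 0.01% Triton X-100. Reaction started with 2 uM Z-FR-AMC; AMC fluorescence (ex 360/em 450 nm) change over 60 s gave rate.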
LASV entry inh: qHTS for Inhibitors of binding or entry into cells for Lassa Virus; 1.2% of 300,000 active; Lassa virus pseudotype entry inhibition, cell reporter; control for the full effect not named in the record; Potency, µM (doses to about 37.9 µM), for the others: top-dose activity change, negative = inhibition, most hits filed as inhibitors; active means well fitted inhibition curve with a large enough effect; inconclusive means small, poorly fitted or top-dose-only effect, or effect the other way; inactive means flat fitted curve, though single readings scatter; tested in HEK293 cells; also: % is scaled to controls: 0 for no effect and ±100 for the full control effect; nearly all actives have a fitted effect of over 50% in size; luciferase read-out
Cruzain inh noDet: qHTS Assay for Promiscuous and Specific Inhibitors of Cruzain (without detergent). Potency, µM, for the others: max response, negative = inhibition, actives largely listed as inhibitors. 2.3% of 200,000 active. AID 1476, 2009. Cruzipain (Trypanosoma cruzi), P25779. purified cruzain, Z-FR-AMC fluorescence, no detergent; active = well fitted curve in the direction sought with a large enough effect; inconclusive = small, poorly fitted or top-dose-only effect, or another doubt; inactive = no such curve, though single readings can be large; an effect the other way counts as inactive or inconclusive;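 also: plate controls were enzyme without inhibitor for no effect and buffer without enzyme for full effect; nearly all actives have a fitted effect of over 40% in size; top concentration of the series not given in the record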
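Purified cruzain at 1.5 nM, pre-incubated 15 min with compound at room temperature in 100 mM sodium acetate pH 5.5, 5 mM DTT, 0.00005% Triton X-100. Reaction started with 2 uM Z-FR-AMC; AMC fluorescence increase over 60 s gives rate.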
SARS PLpro yeast: qHTS of Yeast-based Assay for SARS-CoV PLP | S. cerevisiae expressing SARS-CoV PLpro, growth rescue; control for the full effect not named in the record | Potency, µM (top dose mostly 32.9 µM), inactives show top-dose activity, positive = growth rescue | 0.19% of 330,000 active; also: 0% is about no effect; nearly all actives have a fitted effect of over 55% in size; growth read by luminescence after 48 h
NS1 inh: qHTS Assay for Inhibitors of Influenza NS1 Protein Function; S. cerevisiae slowed by influenza A NS1, growth recovery by OD600; Potency, µM (titrated, usually from 46.1 µM), inactives show at the highest dose activity, positive = more growth; 0.4% of 270,000 active; AID 2326, 2010; also: actives are rising curves; nearly all actives have a fitted effect of over 50% in size
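Recovery from NS1-induced slow growth read by OD600 in budding yeast switched to galactose assay medium (pH 6.0, -URA) at 1:100 dilution. Compound 23 nl per well; the matching strain lacking NS1 serves as control.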
StopGo reporter: High Throughput Screening for Foot and Mouth Disease Virus Antivirals | AID 1159524, 2015 | Potency, µM (doses to about 57.9 µM), without a hit: top-dose signal change, negative = less light | 1.2% of 410,000 active | human cells with a luciferase reporter of 2A StopGo recoding; control for the full effect not named in the record; active = well fitted falling curve with a large enough effect; inconclusive = small, poorly fitted or top-dose-only effect; inactive = no such curve, though single readings can be large or run the other way; tested in HEK293T cells; also: % is scaled to controls: 0 for no effect and ±100 for the full control effect; nearly all actives have a fitted effect of over 45% in size; luciferase light after 4 h
MARV entry inh: qHTS for inhibitors of binding or entry into cells for Marburg Virus; Marburg virus pseudotyped entry inhibition, cell reporter; control for the full effect not named in the record; about a third of the inactives were read at about 46 µM; AID 540276, 2011; 1.8% of 300,000 active; Potency, µM (top dose mostly 37.8 µM), without a hit: top-dose activity change, negative = inhibition, most hits filed as inhibitors; active = well fitted inhibition curve with a large enough effect; inconclusive = small, poorly fitted or top-dose-only effect, or effect the other way; inactive = flat fitted curve, though single readings scatter; tested in HEK293 cells; about a fifth of its hits are not listed in these tables; also: % is scaled to controls: 0 for no effect and ±100 for the full control effect; luciferase read-out
RE007 growth inh: qHTS Assay for Inhibitors of the HIV-1 protein Vpr; S. pombe RE007 Vpr strain, BacTiter-Glo ATP luminescence, 24 h; control for the full effect not named in the record; Potency, µM (series often up to 92.2 µM), without a hit: top-dose activity change, negative = less growth; 0.21% of 360,000 active; AID 651644, 2012; active = well fitted falling curve with a large enough effect; inconclusive = small, poorly fitted or top-dose-only effect; inactive = no such curve, though single readings can be large or run the other way;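 also: % is scaled to controls: 0 for no effect and ±100 for the full control effect; nearly all actives have a fitted effect of over 50% in size; the assay follows cell death caused by Vpr and the record does not say whether a fall means rescue or toxicity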
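Fission yeast strain RE007, carrying one chromosomally integrated HIV-1 vpr copy, was seeded at OD 0.01 in PMG+AL medium with 23 nL pinned compound. After 24 h at 30 °C and 99% humidity, viability was read by BacTiter-Glo luminescence.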
* hit, by the source's call; ? = inconclusive; . = no result given; [ ] = another dose, or the depositor's remark. Unless noted, calls follow the shape of the dose curve; as a rule, active means well fitted rising curve with a large enough effect; inconclusive means small, poorly fitted or top-dose-only effect; inactive means no such curve, though single readings can be large or run the other way. Potency is read from the fitted curve at half-maximal effect.

SMILES	Cruzain inh Det	LASV entry inh	Cruzain inh noDet	SARS PLpro yeast	NS1 inh	StopGo reporter	MARV entry inh	RE007 growth inh
CC(=O)N1CCCc2cc(S(=O)(=O)Nc3ccccc3C)ccc21	.	-17%[46.1 µM]	.	5%	14%	20%	?	3%
O=C(Nc1ccc2c(c1)OCO2)c1ccc(Br)s1	-4.5%	?	-17%	-9%	-9%[9.22 µM]	4%	?	12%
COc1ccc(C2(NC(C)=O)CCN(C(=O)CCC(=O)O)CC2)cc1	1.0%	1%	?	-6%	?	18%	13%	3%
COc1ccc(N(C(C)=O)S(=O)(=O)c2cc(OC)ccc2OC)cc1	-0.2%	1%	-2%	3%	-7%	15%	?	0%
COc1ccccc1CNc1ncccn1	.	23%[46.1 µM]	.	.	0%	-7%	?	-9%
O=C(O)c1ccc(N=C2SCC(=O)N2Cc2ccccc2)cc1	.	16%	.	0%	-2%	7%	-2%[46.1 µM]	8%
Cc1noc(C)c1COc1ccc(C(=O)NCc2cccs2)cc1	.	-20%	.	-16%	.	-11%	?	6%
CC1CCCC(NC(=O)COC(=O)CSc2ccc3ccccc3c2)C1C (stereo not given)	-15%	0%	-12%	-2%	-80%	-19%	-3%	-10%
CN(Cc1nc(-c2cccs2)no1)CC1(N2CCOCC2)CCCCC1	.	.	.	0%	2%	-11%	.	-6%
CCN(CC)CCN1C(=O)C(=O)/C(=C(/O)c2ccc(OC)cc2)C1c1ccco1 (stereo not given)	-1.3%	15%	4%	-5%	12%	26%	?	-10%
O=C(CCc1nc2ccccc2c(=O)[nH]1)OCc1ccc(-c2ccccc2)cc1	-0.7%	-6%	?	7%	23%	25%	2%	23%
O=C1C2CC=CCC2C(=O)N1CNc1ccccc1 (stereo not given)	-0.8%	0%	-3%	11%	-5%	-4%	-1%	0%
CCOC(=O)c1c(C)n(-c2ccc(F)cc2)c2ccc(O)cc12	.	.	.	1%	-1%	?	.	5%
CCOc1ccc(OCC)c(NC(=O)CN(C)S(=O)(=O)c2cccc3nsnc23)c1	-5.0%	4%	24%	-2%	-11%	-29%	1%	14%
COC(=O)CC1=C(C)C(=O)CC2C(C)(C)CCCC12C (stereo not given)	2.0%	-18%	10%	-8%	-14%	.	7%	2%

3 neighbouring compounds out of the list so far, for reference:
SMILES	Cruzain inh Det	LASV entry inh	Cruzain inh noDet	SARS PLpro yeast	NS1 inh	StopGo reporter	MARV entry inh	RE007 growth inh
CC(=O)N1CCCc2cc(S(=O)(=O)Nc3ccccc3C)ccc21	.	-17%[46.1 µM]	.	5%	14%	20%	?	3%
O=C(Nc1ccc2c(c1)OCO2)c1ccc(Br)s1	-4.5%	?	-17%	-9%	-9%[9.22 µM]	4%	?	12%
COc1ccc(C2(NC(C)=O)CCN(C(=O)CCC(=O)O)CC2)cc1	1.0%	1%	?	-6%	?	18%	13%	3%

Next structures follow:
SMILES	Cruzain inh Det	LASV entry inh	Cruzain inh noDet	SARS PLpro yeast	NS1 inh	StopGo reporter	MARV entry inh	RE007 growth inh
O=C(O)CC1=C(O)C(=O)N(c2ccccc2)C1c1ccccc1 (stereo not given)	1.0%	17%	?	1%	?	-15%	15%	2%
O=S(=O)(Nc1ccc(F)cc1)N1CCCCCC1	5.2%	?	12%	-3%	-3%	28%	0%[46.1 µM]	12%
COc1cc2cc(C)nc(Cc3cccc4ccccc34)c2cc1OC	-10%	.	-8%	-5%	-40%	?	.	-10%
Cc1ccc(NC(=S)NCCN(C2CCCCC2)C2CCCC2)cc1C	.	?	.	-2%	.	-16%	9.2µM*	-9%
CCOc1ccc2c(=O)c(Oc3ccccc3OCC)coc2c1	1.3%	-15%	-8%	6%	0%	41%[activator]	7%	11%
O=C1CN(S(=O)(=O)c2cc(Cl)ccc2Cl)c2ccccc2N1	.	6%	.	0%	1%	27%	-9%[46.1 µM]	34%
NS(=O)(=O)c1ccc(N/N=C/c2cn(-c3ccccc3)nc2-c2cccs2)cc1	-5.0%	?	-22%	-22%	?	-25%	?	-5%
COc1ccccc1NC(=O)CCN1C(=O)C2CC=C(Cl)CC2C1=O (stereo not given)	-2.1%	-14%	4%	4%	-3%	10%	2%	3%
COc1ccccc1-c1nc(=S)c(C(C)=O)c(C)[nH]1	.	0%	.	3%	5%	-2%	8%	8%
CC(O)C(=O)N/N=C/c1cccc2ccccc12 (stereo not given)	-4.9%	?	-9%	10%	-6%	27%	6%	11%
CCOC(=O)N1CCN(C(=O)Cc2ccccc2[N+](=O)[O-])CC1	.	.	.	4%	-17%	-8%	.	-7%
OCC1(Cc2ccccc2C(F)(F)F)CCN(Cc2ccccc2)CC1	.	-26%[46.1 µM]	.	0%	6%	-3%	?	-13%
Cc1cc(-c2csc(NC(=O)c3ccc(=O)[nH]c3)n2)c(C)n1Cc1ccco1	.	13%[46.1 µM]	.	0%	5%	-25%	-3%[46.1 µM]	-15%
Nc1nonc1-n1nnc(C(=O)N/N=C/c2ccccc2Cl)c1CN1CCOCC1	.	.	.	?	-14%	-21%	.	33%
COc1cccc(C2C(C(=O)c3cc4ccccc4o3)=C(O)C(=O)N2c2cc(C)on2)c1OC (stereo not given)	-11%	0%	?	2%	?	-7%	-15%	-13%
Cc1ccc(Nc2nc(CSc3nnc(-c4ccccc4)n3C)cs2)cc1	-9.7%	?	?	-25%	-4%	-34%	?	-10%
Cn1c(=O)n(CCOc2ccc([N+](=O)[O-])cc2)c2ccccc21	.	2%	.	0%	-5%	17%	7%[14.2 µM]	-1%
COc1ccc(CNC(=O)C2CCN(C(=O)N3CCOc4ccc(Cl)cc43)CC2)cc1	-8.6%	-20%[46.1 µM]	4%	.	.	-25%	.	.
COc1ccccc1C(=O)NC(CCSC)C(=O)OCC(=O)c1ccc[nH]1 (stereo not given)	-26%	10%	-17%	-3%	-38%	5%	2%	0%
CC(=O)N1CCN(c2nc(-c3ccco3)c3c(c2C#N)CC(C)(C)SC3)CC1	-21%	-17%	?	-8%	16%	?	-21%	6%
Cc1sc2ncnc(N[C@@H](Cc3c[nH]c4ccccc34)C(=O)O)c2c1C	-4.9%	2%	8%	-28%	9%	-11%	?	28%
COC(=O)c1ccc(N=Nc2ccccc2)cc1	.	?	.	-4%	.	-25%	?	0%
Cc1c(C(=O)NCc2cccc(F)c2)oc2c1-c1[nH]ncc1CC2	-8.0%	-19%[46.1 µM]	?	.	.	2%	5%[46.1 µM]	.
COc1ccccc1N(C(=O)c1snc(C(N)=O)c1N)C(C(=O)NC1CCCC1)c1ccc2ncccc2c1 (stereo not given)	.	?	.	-1%	3%	18%	?	0%
COc1ccc(-n2c(-c3ccco3)nc3c(cnn3-c3ccccc3C)c2=O)cc1	-2.8%	?	8%	0%	-1%	?	?	-30%
Nc1ccc(C(=O)OCC(=O)c2cccc([N+](=O)[O-])c2)cc1	.	?	.	0%	14%	8%	?	-3%
Clc1cccc(OCc2nc(-c3ccncc3)n[nH]2)c1	.	-4%	.	.	-30%	-6%	?	1%
CCCOc1ccc(S(=O)(=O)N2CCOCC2)cc1[N+](=O)[O-]	.	?	.	3%	.	-7%	-1%[46.1 µM]	-5%
CSc1nnc(-c2cc3c(-c4ccccc4)nn(C)c3s2)n1C	-4.0%	-2%	?	-6%	-8%	-19%	?	-5%
Cc1cc(C)n2nc(CNS(=O)(=O)c3ccc(Cl)cc3)nc2n1	-1.2%	1%[46.1 µM]	-3%	.	.	-9%	6%[46.1 µM]	.
Cc1cc(-c2ccc(/C=N/n3cnnc3)o2)c(C)c([N+](=O)[O-])c1	.	18%[46.1 µM]	.	-2%	-3%	-4%	23%[46.1 µM]	5%
CCOc1cc(N2CCOCC2)c(OCC)cc1NC(=O)c1c(C)noc1C	.	28%	.	-5%	.	-24%	16%	5%
O=C(O)c1ccc(N=NN2CCCCC2)cc1	.	?	.	?	3%	9%	-14%[46.1 µM]	-2%
Cc1ccc(-c2cc(-c3ccccc3)[nH]c(=S)c2C#N)cc1	-9.3%	5%	16µM*	2%	14%	-21%	23%	5%
Cc1cccc(N2CCN(C(=O)c3ccc4nc(N5CCCCC5)sc4c3)CC2)c1C	.	18%	.	1%	5%	-28%	26%[46.1 µM]	-10%
S=c1[nH]nc(-c2cccc(Cl)c2)n1Cc1ccccc1	-5.6%	1%	-8%	3%	0%	-16%	?	4%
COc1cc(C=O)cc(OC)c1OS(=O)(=O)c1ccc(NC(C)=O)cc1	-0.9%	6%	4%	-2%	0%	-8%	2%	-3%
COc1ccc(CC(=O)OCC(=O)NCc2ccccc2Cl)cc1	.	15%	.	-5%	.	0%	1%[46.1 µM]	-16%
Cc1ccsc1C(=O)C1CCCN(Cc2cc3ccccc3o2)C1 (stereo not given)	.	.	.	1%	-2%	?	.	-14%
Cc1ccc(/C=N/n2c(COc3ccccc3)n[nH]c2=S)o1	.	.	.	0%	12%	-9%	.	15%
CCOC(=O)CSc1nnc(-c2cccnc2)n1C	.	2%[46.1 µM]	.	0%	1%	5%	8%[46.1 µM]	2%
CC(C)CC(NS(=O)(=O)c1ccc2c(c1)oc(=O)n2C)C(=O)NCc1cccnc1 (stereo not given)	-0.6%	.	-28%	-3%	-4%	-15%	4%	4%
N#CCC(=O)N1CC2(CC(c3cccc(NC(=O)COc4ccc(Cl)cc4)c3)=NO2)C[C@@H]1C(N)=O (stereo not given in full)	.	.	.	-1%	1%	-5%	.	1%
CCN1CCN(c2ccc(NC(=O)C(C)C)cc2Cl)CC1	5.2%	-15%	6%	-1%	-3%	-20%	4%	8%
CCOC(=O)N1CCN(c2c(Nc3cc(C)[nH]n3)c(=O)c2=O)CC1	-2.8%	.	-2%	1%	9%	-3%	.	7%
CCc1cccc(C)c1NC(=O)Cn1ccn(Cc2ccc(Cl)cc2)c(=O)c1=O	-0.2%	1%[46.1 µM]	7%	.	.	-4%	.	.
